HPGD block: blocks human HPGD enzyme activity. P15428. purified HPGD, NADH fluorescence kinetic, PGE2 substrate. Potency, µM, for the others: top-dose activity change, negative = inhibition, usual class: inhibitors. hit rate 4.3% among 150,000; active = well fitted inhibition curve with a large enough effect (not every such curve was filed as active); inconclusive = small, poorly fitted or top-dose-only effect, or another doubt; inactive = no such curve, though single readings can be large or run the other way;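 also: top concentration of the series not given in the record; plate controls included wells without enzyme; inactives centre near -10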
Target sequence (P15428 whole entry, looked up): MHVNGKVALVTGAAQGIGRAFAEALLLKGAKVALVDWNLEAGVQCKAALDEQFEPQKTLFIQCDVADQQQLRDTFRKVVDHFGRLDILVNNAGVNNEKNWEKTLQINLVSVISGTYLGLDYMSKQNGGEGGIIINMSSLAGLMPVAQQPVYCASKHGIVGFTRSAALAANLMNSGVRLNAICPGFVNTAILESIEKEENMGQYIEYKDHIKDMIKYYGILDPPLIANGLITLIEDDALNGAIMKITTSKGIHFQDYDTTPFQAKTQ
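NADH formation kinetics: reaction with 30 uM PGE2 and 1 mM NAD+ (final), 20 nM enzyme, Tris-HCl pH 8 with Tween 20, after 15 min compound preincubation at room temperature. Fluorescence change, last versus first of five reads.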
* hit, by the source's call; ? = inconclusive. % is scaled to controls: 0 for no effect and ±100 for the full control effect; potency is read from the fitted curve at half-maximal effect. This is a subset, so the mix of outcomes need not match the whole.

SMILES | HPGD block
Cc1ccnc(SCc2cc(=O)c(OC(=O)c3ccc(Cl)c([N+](=O)[O-])c3)co2)n1 | ?
C[n+]1c2n(c3ccccc31)N=C(c1ccc(Cl)cc1)CS2 | -7.7%
COC(=O)COc1ccc(S(=O)(=O)NCc2ccco2)cc1 | 2.2%
CCOc1ccc(S(=O)(=O)NCc2ccco2)cc1 | -10.2%
COCCSc1nnc(-c2cccc(C#N)c2)n1C | -4.3%
C/C(N)=C(\C#N)C(=O)NCc1ccccn1 | -11.8%
O=C(c1cccc(F)c1F)N1CCCC1 | 28.2µM*
CC(C)C(c1nnnn1Cc1ccc(F)cc1)N1CCN(C(=O)c2ccco2)CC1 (stereo not given) | -4.6%
COC(C(=O)Nc1ccccc1F)c1ccccc1 (stereo not given) | -15.0%
C/C(=C\C(=O)c1ccccc1)NCc1ccc(F)cc1 | ?
CCOC(=O)C1CCCCN1Cc1cc(Cl)ccc1O (stereo not given) | -2.0%
CC(C)C(=O)NNC(=O)CSc1nc(C2CCCCC2)nc2ccccc12 | -7.4%
Cc1cc(C)c2c(c1)c(C)cc1nnc(SCC(=O)c3cccs3)n12 | -12.0%
O=C(O)/C(=C1/OC(=O)c2ccccc21)c1ccccc1 | -21.0%
COc1ccc(N2CCN(c3ccc(N4C(=O)COCC4=O)cc3[N+](=O)[O-])CC2)cc1 | -7.6%
CCCOc1ccc(CSc2nc3ccccc3[nH]2)cc1 | -20.0%
CC(C)[C@H](O)C1=CCCCC1=O | -0.7%
CC(=O)Nc1ccc(C(=O)NCCc2ccccc2)cc1 | ?
CCOc1cc(/C=N/NC(=O)CNc2ccc(C)cc2)ccc1OC(=O)c1ccccc1 | -11.9%
Cc1ccc2[nH]c3c(c2c1)CN(C(=O)CN1CCN(c2ccccc2F)CC1)CC3 | -13.8%
O=C(/C=C/Nc1ccc(OC(F)(F)F)cc1)C(F)(F)F | -10.8%
CCOC(=O)c1oc2ccc(S(=O)(=O)n3nc(-c4ccc(OC)cc4)cc3N)cc2c1C | -24.9%
CC(C)=CC(=O)OCC(=O)Nc1cc([N+](=O)[O-])ccc1F | -4.3%
Clc1ccc(CSc2nnc(-c3ccc4c(c3)OCO4)o2)cc1 | -27.1%
CCOC(=O)c1ccc(NC(=O)c2ccccc2)cc1 | -8.7%
Cc1ccc(SC(C)C(=O)Nc2ccc(S(=O)(=O)N3CCOCC3)cc2)cc1 (stereo not given) | -11.8%
O=C(NCc1cccc(F)c1)c1noc2c1CCCC2 | 20µM*
FC(F)(F)c1cc(-c2ccco2)nc(NCc2cccnc2)n1 | -22.5%
Cn1c(C(C#N)C(=O)c2ccco2)nc2ccccc21 (stereo not given) | -4.0%
CCN(CC)C(=O)CP(=O)(c1ccccc1)c1ccccc1 | 1.1%

In a second layout: 3 of the compounds above.
structure: O=C(NCc1cccc(F)c1)c1noc2c1CCCC2
  HPGD block: 20µM*

structure: FC(F)(F)c1cc(-c2ccco2)nc(NCc2cccnc2)n1
  HPGD block: -22.5%

structure: Cn1c(C(C#N)C(=O)c2ccco2)nc2ccccc21 (stereo not given)
  HPGD block: -4.0%

(listing goes on)
SMILES | HPGD block
Clc1ccc(Sc2cc(N3CCOCC3)nc(-c3ccccc3)n2)cc1 | -14.6%
CC(C)n1c(SCC(N)=O)nc2c1c(=O)[nH]c(=O)n2C | ?
CCOC(=O)c1c(NC(=O)CSc2nnc(CNc3ccc(C)cc3C)o2)sc(C)c1C | -21.8%
Cc1c(C(=O)N/N=C/c2cccnc2)sc(=S)n1C | -14.6%
Clc1ccc(SCc2cn3ccsc3n2)cc1 | -20.2%
CC(=O)NCCNc1nc(-c2ccccc2CN(C)C)nc2ccccc12 | -5.7%
Cc1cc(O)ccc1Nc1nc(-c2sc(N)nc2C)cs1 | 15.8µM*
CN(C(=O)c1cc2sccc2n1C)C1CCCCC1 | 17.8µM*
CC(=O)N1CCN(C(=O)Cn2c(=O)oc3ccccc32)CC1 | -2.4%
Cc1nnc(SCC(=O)Nc2nc3ccccc3s2)n(N)c1=O | 4.2%
c1ccc(-c2ccnc3nc(-n4cccc4)nn23)cc1 | ?
CN(CC(=O)O)S(=O)(=O)c1cc(Cl)ccc1Cl | -11.7%
CCc1c(O)cc(=O)n(-c2ccccc2)c1-c1ccccc1 | -7.4%
Cc1nn(-c2ccccc2)c2sc(C(=O)n3cccn3)cc12 | ?
COc1ccc(-c2nnc(SCC(=O)N3CCOCC3)o2)cc1 | -5.1%
Cc1ccn2c(-c3n[nH]c(=S)n3C)c(C)nc2c1 | ?
COC(=O)c1cc(CNC(=O)c2ccccc2Cl)ccc1OC | ?
COC(=O)c1c(NC(=O)CN2CCCc3ccccc32)sc(C)c1C | -12.1%
Cc1ccc(-c2nc(CCN3C(=O)c4ccccc4C3=O)cs2)cc1 | -21.3%
C[C@]12C[C@@](C)(C=C1/C=C/c1ccc(F)cc1)C(=O)C[C@H]2c1ccc(F)cc1 | -4.6%
Cc1ccccc1-c1nc2sc3c(c2c(=O)o1)CCC3 | 15.8µM*
Cc1cccc(C)c1NC(=O)c1c(-c2ccccc2)noc1C | -2.0%
O=C1CC(c2ccc(F)cc2)Sc2nc(-c3ccccc3)c(-c3ccccc3)n21 (stereo not given) | 2.9%
CC(C)NC(=O)C12CC3CC(C1)CC(n1cnc(Cl)n1)(C3)C2 | 6.2%
Cc1cccc(CNC(=O)c2ccccc2N)c1 | ?
Cn1c(SCC(=O)N2CCN(c3ccccc3)CC2)nnc1-c1ccncc1 | 4.4%
O=C(Nc1cccc(C(=O)N2CCOCC2)c1)c1cncc(Br)c1 | -15.5%
COc1ccc(CCN(C)C(=O)C2CCCN(Cc3ccc(OC)c(OC)c3)C2)cc1OC (stereo not given) | -3.5%
Clc1ccc2nc(N3CCCCC3)[nH]c2c1 | ?
O=C(COC(=O)Cc1cccc(C(F)(F)F)c1)NCC1CCCO1 (stereo not given) | -10.8%
CCOc1ccc(NC(=O)Cn2nc(-c3ccccc3Cl)n(CC)c2=S)cc1 | -21.1%
O=S(=O)(c1ccc(OCC(O)CN2CCCC2)cc1)N1CCOCC1 (stereo not given) | -12.1%
O=C(OCc1ccco1)c1ccc(S(=O)(=O)N2CCCCC2)cc1 | -16.3%
O=C(OC(C(=O)NCc1ccc2c(c1)OCO2)c1ccc(Cl)cc1)c1ccco1 (stereo not given) | 28.2µM*
CCOCCOC(NC(=O)c1ccccc1)(C(F)(F)F)C(F)(F)F | -15.0%
CN(C)C(=O)c1ccc(-c2nc(NCc3ccccc3)c3ccccc3n2)cc1 | ?
C=CCOc1ccccc1CNn1nnnc1N | -4.7%
Cc1ccc(C)n1-n1c(C)nc2sc(-c3ccccc3)cc2c1=O | -20.7%
O=C(CCC(=O)OCc1cccc(C(=O)Oc2ccccc2)c1)Nc1cccc2ccccc12 | -6.9%
O=S(=O)(c1ccccc1)N1CCN(C2CCN(Cc3ccccc3)CC2)CC1 | -4.4%
CC1(C)Cc2c(c(N3CCCCC3)[nH]c(=S)c2C#N)CS1 | -9.6%
Nc1ncnc2c1nc(Br)n2C1OC(CO)C(O)C1O (stereo not given) | -3.5%
O=[N+]([O-])c1ccc(S(=O)(=O)NCC2CCCO2)cc1 (stereo not given) | -4.9%
Nc1nc(NCCCN2CCOCC2)nc(Nc2ccc(F)cc2)c1[N+](=O)[O-] | -14.9%
Cc1sc2nc(CN(CCc3ccccc3)C(=O)c3ccco3)[nH]c(=O)c2c1C | -16.5%
O=C(CC1C(=O)NC2CCCCC2N1C(=O)c1ccc(F)cc1)Nc1ccccc1 (stereo not given) | 2.9%
CCCCCN(C(=O)NC(=O)Nc1ccccc1C)S(=O)(=O)c1ccccc1 | 7.2%
CCOC(=O)c1sc(NC(=O)c2ccc(C)s2)cc1C | ?
COc1ccc(CCN(Cc2cc3cccc(C)c3[nH]c2=O)C(=O)NC2CCCCC2)cc1OC | -3.1%
CCOC(=O)c1cc(CC)sc1NC(=O)c1cc([N+](=O)[O-])ccc1N1CCOCC1 | -13.6%
C/C(Cl)=C/Cc1c(C)[nH]c2ccc(C)cc2c1=O | -12.5%
Cc1ccc(C(=O)C[n+]2cc(-c3ccc(C)cc3)n3c2CCCCC3)cc1 | -10.6%
C/C(CCc1ccc2c(c1)OCO2)=N\N=C1\NC(=O)CC(C(=O)Nc2ccc(Cl)cc2)S1 (stereo not given) | -6.1%
COC(=O)[C@@H](NC(=O)N(C1CCCCC1)C1CCCCC1)C(C)C | -2.7%
CCOC(=O)c1ccccc1NC(=O)CN1C(=O)CCS(=O)(=O)c2ccccc21 | -9.7%
Cc1nn(C)c(C(=O)N/N=C/c2ccc(Br)cc2)c1Cl | -6.3%
CC(=O)OC1CC2CCC1(C)C2(C)C (stereo not given) | -10.4%
O=C(O)CSc1ccccn1 | -15.0%
CO[C@@]1(NC(=O)Cc2cccs2)C(=O)N2C(C(=O)O)=C(COC(N)=O)CS[C@@H]21 | -11.8%
COc1cc(/C=C(\C#N)C(=O)NCc2cccs2)ccc1O | -21.3%
(next part)
SMILES | HPGD block
O=C(Nc1cc(Cl)cc(Cl)c1)C1CCC(=O)N1Cc1ccccc1Cl (stereo not given) | -13.7%
CC(=O)Nc1ccc(NC(=O)CSc2nnc(-c3ccco3)n2Cc2ccco2)cc1 | -9.7%
Nc1nonc1N1CCCCC1 | -1.0%
Cc1ccc(C(=O)NCCCn2ccnc2)o1 | -1.8%
Cc1cccc(N2C(=O)CC(SC(=Nc3ccccc3)Nc3ccccc3)C2=O)c1 (stereo not given) | -10.1%
O=C(CCCOc1ccccc1)NC1CCCc2ccccc21 (stereo not given) | -5.2%
CC(=O)Nc1c(Cl)cc([N+](=O)[O-])c2ccccc12 | -3.3%
CN(C)c1ccc(-c2nn3c(-c4ccc(Cl)cc4Cl)nnc3s2)cc1 | ?
Cc1cc(C(=O)NNC(=S)NCC(C)C)no1 | -14.3%
Cc1ccc(C(=O)N[C@H](C(=O)OCc2cc(=O)oc3cc(C)ccc23)C(C)C)cc1 | -10.6%
CCOC(=O)CSc1nc2c(c(-c3ccc(C)o3)c1C#N)CCCC2 | ?
Cc1cc(C)c(S(=O)(=O)c2ccccc2)c(OC(=O)c2c(F)cccc2Cl)n1 | -1.3%
O=C(COC(=O)CCC1CCCC1)Nc1ccc(Cl)cc1F | -4.4%
CCC(C)N1CC(O)=C(c2nc3ccccc3[nH]2)C1=N (stereo not given) | -10.5%
O=[N+]([O-])c1cc2c(c(CSc3nnc(Nc4ccccc4)s3)c1)OCOC2 | -20.0%

Of the compounds above, 12 have a thiophene ring, fused or not:
SMILES | HPGD block
Cc1cc(C)c2c(c1)c(C)cc1nnc(SCC(=O)c3cccs3)n12 | -12.0%
CCOC(=O)c1c(NC(=O)CSc2nnc(CNc3ccc(C)cc3C)o2)sc(C)c1C | -21.8%
CN(C(=O)c1cc2sccc2n1C)C1CCCCC1 | 17.8µM*
Cc1nn(-c2ccccc2)c2sc(C(=O)n3cccn3)cc12 | ?
COC(=O)c1c(NC(=O)CN2CCCc3ccccc32)sc(C)c1C | -12.1%
Cc1ccccc1-c1nc2sc3c(c2c(=O)o1)CCC3 | 15.8µM*
Cc1ccc(C)n1-n1c(C)nc2sc(-c3ccccc3)cc2c1=O | -20.7%
Cc1sc2nc(CN(CCc3ccccc3)C(=O)c3ccco3)[nH]c(=O)c2c1C | -16.5%
CCOC(=O)c1sc(NC(=O)c2ccc(C)s2)cc1C | ?
CCOC(=O)c1cc(CC)sc1NC(=O)c1cc([N+](=O)[O-])ccc1N1CCOCC1 | -13.6%
CO[C@@]1(NC(=O)Cc2cccs2)C(=O)N2C(C(=O)O)=C(COC(N)=O)CS[C@@H]21 | -11.8%
COc1cc(/C=C(\C#N)C(=O)NCc2cccs2)ccc1O | -21.3%

Following part:
SMILES | HPGD block
O=C(CN1CCN(Cc2ccccc2)CC1)NC(=O)NC1CCCCC1 | -2.3%
CCOC(=O)c1sc(=S)n(C)c1C | -22.5%
CCCNS(=O)(=O)c1cccc2cccnc12 | -5.9%
Cc1cccc(N2CCCn3c2nc2c3c(=O)n(CCN3CCOCC3)c(=O)n2C)c1 | -23.4%
CCC(=O)c1ccc(OCCN2CCOCC2)cc1 | 0.3%
CCn1c(N)c(C(=O)NCc2ccco2)sc1=S | 22.4µM*
CCOc1ccc(-c2noc(-c3cccnc3)n2)cc1OC | -4.9%
O=C(C1CCN(S(=O)(=O)c2cnc[nH]2)CC1)N1CCc2ccccc2C1 | -12.3%
NC(=O)/C(=C/c1ccco1)NC(=O)/C=C/c1ccccc1 | -22.5%
Cc1ccc(C(=O)c2c(NC(=O)c3ccccc3C)sc(C)c2C)cc1 | -3.8%
CC1=C(C)CC(C(=O)c2ccc(C)cc2)C(C(=O)O)C1 (stereo not given) | -10.2%
CC(C)C(=O)Nc1nnc(SCC(=O)NC2CC2)s1 | -10.6%
Cc1ccc(Nc2nnc(SCc3cc(=O)n4cc(C)ccc4n3)s2)cc1 | -24.7%
CCOc1ccc(-n2c(N)c(-c3nc4ccccc4n3C)c3nc4ccccc4nc32)cc1 | ?
CC(C)c1ccc(C(C(=O)NC2CCCC2)N(C(=O)CNC(=O)c2ccco2)c2cccnc2)cc1 (stereo not given) | 2.9%
COC(=O)c1ccc(-c2nc3cc(N)ccc3o2)cc1 | -8.6%
CCn1cc[n+](C)c1P(c1ccccc1)c1ccccc1 | 25.1µM*
OC1CCCN(Cc2ccccc2)C1 (stereo not given) | -12.6%
O=C(CNCCN1CCOCC1)Nc1ccccc1Sc1ccccc1 | -3.9%
CC1CCCCC1NC(=O)C1CCN(C(=O)NC2CCCCC2)CC1 (stereo not given) | -11.8%
Cc1onc(C(=O)N2CCC(C(N)=O)CC2)c1-c1ccccc1Cl | -1.3%
CSc1nc2ccccc2c(=O)n1N | -5.7%
O=C1CNC(=O)N1CC(=O)N1CCCc2ccccc21 | -1.1%
COCCCNC(=S)NC1CCCCC1 | -11.3%
O=C(CNC(=O)c1ccc(S(=O)(=O)N2CCCC2)cc1)N/N=C/c1ccc(Cl)cc1Cl | -4.1%
CN(C)CCSc1nc(-c2ccccc2)nc2c1COC(C)(C)C2 | -3.1%
NCCCNCCCCN(CCCN)/[N+]([O-])=N/O | -7.6%

Bioassay records deposited in PubChem by National Center for Advancing Translational Sciences (NCATS).
